# Menin MLL FP FL – menin-MLL binding inhibition, fluorescein peptide; Fluorescence polarization, fluorescein-MLL peptide displacement from menin; FP activity change, % at 61.4 µM; 290,000 tested, under 10 active; inconclusive = falling polarisation curve, or a change in total fluorescence; inactive = total fluorescence flat and polarisation flat or rising; no compound was filed as active; the % refers to the polarisation; negative = inhibition;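 further: % of control where 0% means no effect; inhibitors lower the polarisation; unlabelled MLL peptide was the positive control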
# gsp agonist – gsp mutant agonism. gsp mutant cells, cAMP HTRF, 30 min; control for the full effect not named in the record. Potency, µM (highest dose often 76.9 µM), inactives show at the top dose activation (cAMP increase), usual class: activators. actives 0.13% (n = 340,000). AID 624287; active = well fitted activation curve with a large enough effect; inconclusive = small, poorly fitted or top-dose-only effect, or another doubt; inactive = no such curve, though single readings can be large or run the other way; cell line not stated here;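 further: phosphodiesterase inhibitor Ro 20-1724 added with compounds to block cAMP breakdown; potency means the concentration at half of the fitted maximal effect; nearly all actives have a fitted effect of over 60% in size; about a fifth of the inactives were tested at one dose only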
#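 Cells in DMEM/10% FBS with G418 were pretreated with compounds in DMSO plus […] (300 uM stock) for 30 min at 37C. cAMP was measured by HTRF (cAMP-d2 plus anti-cAMP antibody-K) after 30 min at room temperature.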
# Sfp inh – blocks B. subtilis Sfp PPTase activity. Biochemical Sfp PPTase activity, qHTS. actives 3.5% (n = 310,000). Potency, µM, for inactives: max response, negative = inhibition, actives largely listed as inhibitors; active means well fitted inhibition curve with a large enough effect; inconclusive means small, poorly fitted or top-dose-only effect, or another doubt; inactive means no such curve, though single readings can be large or run the other way;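 further: the enzyme is Sfp with the accession as filed and its product quenches rhodamine fluorescence; potency means the concentration at half of the fitted maximal effect; 0% = enzyme reaction without inhibitor and -100% = no enzyme wells; top concentration of the series not given in the record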
#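 Compounds were incubated with enzyme (final 15 nM) for 15 min at room temperature before substrate addition started the reaction. Fluorescence at 525 nm excitation, 598 nm emission was recorded immediately and after 30 minutes.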
# TRPV1 PAM – human TRPV1 potentiation. Q8NER1. TRPV1-expressing cells, Fluo-8 calcium influx, capsaicin EC20 potentiation; host cell line not named in the record; control for the full effect not named in the record. potentiation, % at 8.33 µM. actives 0.02% (n = 320,000). AID 540277; active means potentiation above 80%; inconclusive means 30% to 80%; inactive means below 30%; further: 0% is about no effect
# Target sequence (Q8NER1 whole entry, looked up): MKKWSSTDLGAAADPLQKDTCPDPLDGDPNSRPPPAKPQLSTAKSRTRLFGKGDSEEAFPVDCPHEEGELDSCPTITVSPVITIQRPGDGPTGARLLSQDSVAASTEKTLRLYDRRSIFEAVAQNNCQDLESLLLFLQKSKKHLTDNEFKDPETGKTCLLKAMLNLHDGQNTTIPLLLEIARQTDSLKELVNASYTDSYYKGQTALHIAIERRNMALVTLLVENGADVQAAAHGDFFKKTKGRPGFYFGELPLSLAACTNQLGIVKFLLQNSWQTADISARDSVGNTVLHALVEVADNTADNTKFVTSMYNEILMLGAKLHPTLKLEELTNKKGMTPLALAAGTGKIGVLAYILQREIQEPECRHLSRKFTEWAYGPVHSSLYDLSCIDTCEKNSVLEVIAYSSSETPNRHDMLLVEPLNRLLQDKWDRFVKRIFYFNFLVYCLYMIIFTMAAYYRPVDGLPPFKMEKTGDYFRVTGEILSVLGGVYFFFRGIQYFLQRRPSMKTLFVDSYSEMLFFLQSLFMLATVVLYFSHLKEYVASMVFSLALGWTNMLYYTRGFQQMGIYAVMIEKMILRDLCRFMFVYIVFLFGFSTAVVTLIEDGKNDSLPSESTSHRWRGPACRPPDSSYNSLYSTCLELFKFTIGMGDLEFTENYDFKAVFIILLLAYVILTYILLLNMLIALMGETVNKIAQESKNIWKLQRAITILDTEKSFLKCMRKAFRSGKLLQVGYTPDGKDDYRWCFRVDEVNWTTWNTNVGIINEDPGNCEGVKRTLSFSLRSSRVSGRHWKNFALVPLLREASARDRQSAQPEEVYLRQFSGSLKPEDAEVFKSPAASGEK
#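 TRPV1-expressing cells were cultured overnight at 35.5C and loaded with Fluo-8 calcium dye for 40 to 90 min at room temperature. After a 10 s baseline, compound was added and calcium influx was read kinetically for 3 min (ex 480/em 520 nm).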
# ClpP mod – qHTS Assay for Activators of ClpP; ATP-dependent Clp protease proteolytic subunit (Bacillus subtilis (strain 168)), P80244; purified B. subtilis ClpP, FRET peptide cleavage, 20 min; Potency, µM (highest dose often 57.5 µM), for the others: at the highest dose activity change, negative = active; actives 1.9% (n = 340,000); active = well fitted falling curve with a large enough effect; inconclusive = small, poorly fitted or top-dose-only effect; inactive = no such curve, though single readings can be large or run the other way; further: potency means the concentration at half of the fitted maximal effect; the source files actives as falling curves though it sought activators and does not explain the sign; nearly all actives have a fitted effect of over 65% in size; many hits overshoot -100%
# Target sequence (P80244 whole entry, looked up): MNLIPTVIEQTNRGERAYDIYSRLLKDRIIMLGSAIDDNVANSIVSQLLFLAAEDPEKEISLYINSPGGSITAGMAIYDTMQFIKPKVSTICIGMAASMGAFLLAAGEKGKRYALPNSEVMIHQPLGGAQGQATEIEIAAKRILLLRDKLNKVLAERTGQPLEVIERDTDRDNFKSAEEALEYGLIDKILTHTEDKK
#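 Buffer: 100 mM Tris/HCl pH8, 100 mM KCl, 0.05% low protease BSA, 2.5% glycerol, 0.01% Tween-20. ClpP 10 microg/mL final; 20 min RT; delta FRET normalized to ADEP and DMSO controls.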
# CtBP-E1A inh – inhibitors of CtBP/E1A interaction; AlphaScreen GST-E1A/His-CtBP binding, 1536-well; stronger effect = lower value; control for the full effect not named in the record; activity change, % (concentration not given with the values); actives 0.49% (n = 340,000); AID 651724; in the data active means activity change below about -65%; inconclusive means about -30% to -65%; inactive means above about -30%; further: on the % scale 0 is the no-effect control and ±100 the full control effect
#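 Steps: dispense buffer (Tris pH 8.0, NaCl 300 mM, TCEP 1 mM, BSA, Tween 20); add 5X protein mix (GST-E1A, His-CtBP, 125 nM each); pin 23 nL compound; 2 h at 37 °C, dark; add 5X beads (50 ug/mL); 1 h; read.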
# gsp antagonist – gsp mutant antagonism; actives 0.4% (n = 340,000); gsp-mutant cells, cAMP HTRF, 30 min; control for the full effect not named in the record; Potency, µM (highest dose often 76.9 µM), for the others: at the top dose activity change, negative = inhibition, most hits filed as inhibitors; active = falling curve of any shape with a large fitted effect; inconclusive = falling curve, mostly with a smaller effect; inactive = flat or rising curve; cell line not stated here;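 further: intracellular cAMP measured with PDE inhibitor Ro 20-1724 present during compound exposure; potency means the concentration at half of the fitted maximal effect; on the % scale 0 is the no-effect control and ±100 the full control effect; nearly all actives have a fitted effect of over 65% in size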
#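 HTRF cAMP measurement after 30 min RT detection following 30 min, 37C compound treatment alongside […] (added as 300 uM solution) in G418-selected cells seeded at 2000/well and grown 16–24 h.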
# * hit, by the source's call; ? = inconclusive; / = not tested or not shown; & = joins results of further samples; [ ] = another dose, or the depositor's remark.
SMILES,Menin MLL FP FL,gsp agonist,Sfp inh,TRPV1 PAM,ClpP mod,CtBP-E1A inh,gsp antagonist
O=C1OCC/C1=C\c1ccccc1O,12,-20%,1%,1,0.8%,4,8%
Clc1ccc(C2=NNC(=NCc3ccc4c(c3)OCO4)SC2)cc1,1.0,24%,-17%,-2,-2.0%,?,1%
COc1ccc(C#CC2=CC(=O)CC(C)(C)C2)cc1,/,-3%,/,/,-1.5%,4,/
O=C(CCN1CCN(c2ccccc2)CC1)Nc1ccc(OCc2ccccc2)cc1,-0.3,0%,0%,7,0.9%,-1,12%
Cc1ccc(-n2nc(C(=O)O)nc2-c2ccccc2)cc1,3.8,17%,7%,1,71%,-8,3%
COc1cc2cnc(-c3ccccc3)c(-c3ccc(C(F)(F)F)cc3)c2cc1OC,/,0%,/,-3,?,/,-18%
Cc1cc(C)cc(N(C(=O)c2ccco2)C(C(=O)NC2CCCC2)c2ccncc2)c1 (stereo not given),-0.3,5%[15.4 µM],4%,3,-0.6%,-11,8%
COc1cccc(C(=O)N2CCCc3ccccc32)c1OC,/,-20%,/,/,-3.2%,-2,/
COc1cc(SC#N)ccc1N=Cc1c(C)[nH]n(-c2ccc(C)cc2)c1=O,14,-3%[15.4 µM],3%,-2,0.6%,2,15%
CCOC(=O)CCC(=O)NCc1ccc2c(c1)cc(C)n2C,/,14%,79µM*,15,-4.5%,2,6%
C=CCn1c(SCc2nc3cc(C(=O)OC)ccc3c(=O)[nH]2)nc2sc(CC)cc2c1=O,3.4,7%,-9%,17,0.9%,9,-11%
O=C(Nc1nnc(COc2ccccc2)s1)Nc1ccccc1F,-1.1,-27%,11%,3,/,9,10%
O=c1[nH][nH]c(-c2ccccc2)c1-c1ccccc1,/,14%,/,/,/,0,8%
CN(C(=O)c1ccc2c(c1)OCO2)C1(C)CCS(=O)(=O)C1 (stereo not given),/,-2%[15.4 µM],/,4,/,1,13%
COc1cc(C(=O)N/N=c2/sc3ccccc3n2C)cc(OC)c1OC,-1.7,-4%,-6%,-12,/,0,-9%
COc1ccc(CN2CCN(c3cccc(C)c3C)CC2)cc1OC,-0.2,-3%,-25%,?,0.7%,5,3%
COCc1cc(C)nc(SCC(=O)Nc2cccc(C)c2C)c1C#N,0.7,23%,4%,1,-9.3%,5,27%
CC(C)c1ccc(S(=O)(=O)N2CCN(CC(=O)Nc3ccc4c(c3)OCO4)CC2)cc1,-1.3,8%,13%,-1,0.7%,-4,-8%
CCCCc1ccc(/C(C)=N/Nc2cc(N3CCOCC3)nc(C)n2)cc1,-1.0,-7%,-5%,13,-1.0%,/,-28%
O=Cc1ccc(O)c2ncccc12,15,-39%[inhibitor],25%,27,/,-67*,-1%
Cc1nc2sc3c(c2c(=O)[nH]1)CCCC3,1.4,1%,22%,-9,-1.3%,-4,8%
CC(C)NC(=O)C1CCN(C2CCN(C(=O)/C=C/c3cccs3)CC2)CC1,2.4,-4%[15.4 µM],13%,-6,/,0,5%
O=C(Nc1ccccc1)n1cc(-c2ccccn2)c(N2CCOCC2)n1,5.9,-46%[inhibitor],-7%,5,-3.0%,/,5%
CC1CCCC(N2CCN(C(=O)c3cccc(F)c3)CC2)C1 (stereo not given),-0.3,-32%,-19%,1,-0.4%,21,2%
CCOC(=O)C(C)On1c(-c2cccc(Cl)c2)nc2ccc([N+](=O)[O-])cc21 (stereo not given),3.8,0%,?,-11,1.9%,-10,?
Cc1cc(NC(=O)CSc2nnc(Nc3ccccc3)s2)no1,2.2,?,4%,2,0.7%,-9,8%
Cc1ccc(S(N)(=O)=O)cc1NC(=O)C1CC2CCC1C2 (stereo not given),0.7,-13%,1%,-4,-0.1%,7,7%
O=C(CNC(=O)C1CCCCC1)OCC(=O)c1ccc(F)cc1,/,1%,/,3,0.4%&-0.3%,/,-2%
O=C(c1ccccc1NS(=O)(=O)c1cccc2cccnc12)N1CCOCC1,-1.0,23%,7%,13,/,4,9%
CC1Cc2ccccc2N1S(=O)(=O)c1cccs1 (stereo not given),9.6,-12%,-2%,-6,-0.7%,18,13%
COc1ccc(C(=O)c2c3ccc(OC)cc3[n+]([O-])n2Cc2ccc(C(N)=O)cc2)cc1,/,/,/,18,-5.3%,-10,-10%
Cc1ccc(C)c(OC(=O)c2cncc(Br)c2)c1,4.0,-1%,-6%,-3,-2.2%,0,7%
CC(CN1CCCCC1)OC(=O)c1ccc(Cl)cc1Cl (stereo not given),1.1,4%,15%,9,-2.2%,3,9%
O=C1NC(=S)N/C1=C/c1cccc2ccccc12,9.6,0%,3%,?,1.9%,-15,-4%
O=C(c1ccco1)N1CCN(C(=O)c2ccccc2OC(=O)C23CC4CC(CC(C4)C2)C3)CC1,2.0,-3%,9%,-19,-1.2%,0,0%
O=C(Nc1ccc2c(c1)OCO2)C(c1ccccc1)N1CCCCC1 (stereo not given),7.4,-33%[inhibitor],9%,/,1.6%,-1,0%
O=C1Nc2ccccc2N=C(c2ccccc2)C1N1CCOCC1 (stereo not given),1.4,-15%,10%,-2,0.2%,0,3%
Cc1cc(Cl)ccc1NC(=O)CN1C(=O)NC2(CCCC2)C1=O,3.2,15%,12%,-2,/,-1,-4%
CCCCC1(C)NC(=O)N(CC(=O)Nc2ccc(Cl)cc2C)C1=O (stereo not given),/,-32%[inhibitor],/,/,/,0,0%
Cc1cccc(C)c1NC(=O)C(c1ccccc1)N1CCOCC1 (stereo not given),5.4,-34%,36%[activator],4,0.3%,4,11%
CCN=C1S/C(=C\c2ccc(-c3cccc(C(=O)O)c3)o2)C(=O)N1CC,?,-47%[inhibitor],20µM*,10,?,-22,11%
Cc1cc(NC(=O)NN2CCOCC2)nn1-c1c(Cl)cccc1Cl,-1.5,9%[15.4 µM],12%,/,/,8,1%
CCc1ccc2[nH]c(=O)c(CN(CCN(CC)CC)C(=O)NC3CCCCC3)cc2c1,5.1,7%,15%,-9,?,-3,10%
O=C(CSc1nnc2c(n1)[nH]c1ccccc12)Nc1ccc(S(=O)(=O)Nc2ncccn2)cc1,-0.7,19%,-23%,?,0.8%,/,1%
Nc1ccc(Sc2cc(Cl)nc(N)n2)cc1,-1.0,/,-22%,5,/,/,/
O=C(NCC1CCCCC1)c1cc([N+](=O)[O-])ccc1Cl,-1.4,-6%,11%,17,/,2,-3%
COc1ccc(OC)c(C2=NOC(C(=O)Nc3cc(C)nn3-c3ccccc3)C2)c1 (stereo not given),2.1,-43%[inhibitor],18%,4,-9.1%,-9,5%
O=C(COC(=O)c1cccc([N+](=O)[O-])c1)NCc1ccc2c(c1)OCO2,3.8,-4%,1%,5,0.9%,10,14%

# Continued, starting with the last three of the part before.
SMILES,Menin MLL FP FL,gsp agonist,Sfp inh,TRPV1 PAM,ClpP mod,CtBP-E1A inh,gsp antagonist
O=C(NCC1CCCCC1)c1cc([N+](=O)[O-])ccc1Cl,-1.4,-6%,11%,17,/,2,-3%
COc1ccc(OC)c(C2=NOC(C(=O)Nc3cc(C)nn3-c3ccccc3)C2)c1 (stereo not given),2.1,-43%[inhibitor],18%,4,-9.1%,-9,5%
O=C(COC(=O)c1cccc([N+](=O)[O-])c1)NCc1ccc2c(c1)OCO2,3.8,-4%,1%,5,0.9%,10,14%
C/C(CC(=O)N1CCN(C=O)CC1)=N\NC(=O)c1ccc(Br)cc1,-0.5,5%,3%,0,/,-15,6%
CC(C)Oc1ccc2ccccc2c1CNC[C@H]1O[C@@H](n2cnc(C(N)=O)n2)[C@H](O)[C@@H]1O,/,/,/,/,-2.1%,2,11%
CCOC(=O)C1C(=O)CC(=O)C(C(=O)OCC)C1c1ccc(O)cc1 (stereo not given),/,3%,/,/,-1.4%,-4,/
Cc1cc(C)n(CC(=O)NC2C(=O)N3C(C(=O)O)=C(CSc4nnc(C)s4)CSC23)n1 (stereo not given),0.0,-28%,56µM*,-3,0.7%,9,-7%
COc1ccc(OC)c(-c2cc(C(=O)Nc3c(C)nn(Cc4ccccc4)c3C)no2)c1,0.5,0%,0%,0,?,-22,?
CC(C)(C)n1cnc2cc(NCc3ccccc3O)ccc21,1.0,2%[15.4 µM],-2%,10,-2.7%,-19,-1%
COc1cccc2cc(C(C)N(CCCN3CCOCC3)C(=S)Nc3ccc(C)c(C)c3)oc12 (stereo not given),1.6,0%[15.4 µM],14%,1,/,-22,-17%
CCCn1nc(-c2ccccc2)c2nc3ccccc3nc21,?,19%,19%,-1,-2.3%,8,-11%
CCOC(=O)/C(C(N)=NC)=C(\O)c1ccccc1,0.4,-18%,-2%,-2,-1.1%,-4,7%
CC(C)n1cnnc1SCC(=O)Nc1cccnc1Cl,/,0%,/,/,-1.3%,/,5%
O=C(OCc1ccccc1)N1CCC2CC1c1cc(N3CCNCC3)ccc12 (stereo not given),/,-38%[inhibitor],/,/,-1.5%,-25,/
O=C(O)c1ccc(-n2cc(-c3cc4ccccc4oc3=O)[nH]c2=S)cc1,9.1,-5%[15.4 µM],3.2µM*,4,/,-2,8%
Cc1oc(C(C)(C)C)cc1C(=O)Nc1cccc(/C=C\C(=O)O)c1,2.4,-33%[inhibitor],12%,-1,0.7%,-11,-14%
C[C@@H]1CN([C@H](C)CO)C(=O)CCCn2cc(nn2)CO[C@H]1CN(C)C(=O)C1CC1,/,-77%[inhibitor],/,/,1.3%,-3,/
COc1ccccc1CNS(=O)(=O)N(C)C,5.5,4%[15.4 µM],8%,6,/,3,2%
O=C(C[n+]1ccc(Cc2ccccc2)cc1)Nc1ccccc1,-4.2,-3%[15.4 µM],3%,-1,/,8,6%
Cc1nnc2ccc(N3CCCC3)nn12,-2.8,7%,0%,3,-6.6%,-3,29%
O=C1CCc2cc(Br)ccc2O1,/,-44%[inhibitor],/,/,1.7%,-1,-8%
O=S(=O)(Cc1ccccc1)C1CCCCC1O (stereo not given),5.7,9%[15.4 µM],17%,?,14µM*,0,-4%
O=C(NN=Cc1ccccc1Cl)c1ccc([N+](=O)[O-])cc1,/,?,/,/,/,6,11%
CCCCCn1c(SCC(=O)CC(=O)OCC)nc2cc(C(=O)N3CCC(C(N)=O)CC3)ccc2c1=O,0.0,8%[15.4 µM],5%,-1,-2.0%,-4,-9%
CCOc1cccc(C(=O)Nc2nccs2)c1,0.4,0%,1%,-5,-8.0%,-1,4%

# Compounds were not picked by outcome (roughly 5.3% active in at least one column).
